Assay outcomes as filed in PubChem.
CSM14.1 death rescue: rescue of cells from ER stress-induced death, primary screen, 384-well, CSM14.1, thapsigargin, ATP luminescence (AID 1222); CSM14.1 thapsigargin-induced death rescue, ATP luminescence; higher % means a stronger effect; one-dose cellular ATP content (survival), % at 20 µM; EC50 in µM for titrated hits; 190,000 tested, under 10 active;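 active = EC50 below 50 µM in the dose-response confirmation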;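 also: death triggered by thapsigargin at about 15 µM added after 2 h compound pretreatment; cell ATP read after overnight thapsigargin exposure of roughly 18 to 22 hours; normalized against plate controls of thapsigargin alone and 5% DMSO vehicle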
LYP inhibition: PTPN22 lymphoid phosphatase activity blockers – biochemical, fluorescence intensity, uHTS (AID 1779). recombinant LYP phosphatase, fluorescence intensity; higher % means a stronger effect. one-dose inhibition, % at 11.5 µM; IC50 in µM for titrated hits. 290,000 tested, 0.054% active; in the data active = inhibition above about 50%;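 also: plate controls were vehicle with enzyme for no effect and no enzyme for full effect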
Hep lipid drop: modulators of hepatic lipid droplet formation; inhibition, % at 6.5 µM; AML12 mouse hepatocytes, oleate lipid droplets, BODIPY imaging; AID 1656; 240,000 tested, 0.4% active;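 active = lipid droplet intensity inhibited by at least 50%, with more than 500 cells counted; inconclusive = wells with under 300 cells, treated as cytotoxic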
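Assay system: AML12 mouse liver cells | Compound: 6.5 µM single-point dosing | Schedule: Overnight exposure | Technique: Fluorescence imaging, 20x objective, two fields per well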
AID2073: disruptors of CaV2.2 binding to Mint1 – biochemical, HTRF (AID 2073); 290,000 tested, 0.19% active; HTRF protein-protein interaction, Mint1-CaV2.2; higher % means a stronger effect; one-dose inhibition, % at 20 µM; IC50 in µM for titrated hits; in the data active = inhibition mostly above about 51%, no sharp cut-off; inconclusive = no clear call, values can overlap the other calls; inactive = mostly below about 53%; also: some results filed as inactive read as strong as hits
Siah-1 displacement: Siah-1 peptide-binding antagonists, primary screen, biochemical, fluorescence polarization, rhodamine-plectin, uHTS (AID 1817); Siah-1 / rhodamine-plectin peptide fluorescence polarization; higher % means a stronger effect; displacement, % at 20 µM, or IC50 in µM where a hit was titrated; 290,000 tested, 0.02% active;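 active = displacement of at least 50% at 20 µM, with a fluorescence ratio check between 0.3 and a set limit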;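 also: plate controls were Siah plus tracer with DMSO for no effect and tracer alone without Siah for full effect; strong numbers were not always called active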
XIAP antagonists: XIAP antagonists, biochemical, IAP family, fluorescence polarization (AID 1018); 200,000 tested, 0.007% active; XIAP BIR domain, fluorescence polarization peptide displacement; higher % means a stronger effect; one-dose displacement, % at 20 µM; IC50 in µM for titrated hits; in the data active = displacement above about 50%; also: a part of the inactive calls stands beside numbers as strong as those of hits
P. falciparum M1AAP: P. falciparum M1AAP inhibitors, biochemical, fluorogenic H-Leu-NHMec substrate, 1536-well (AID 1445) | one-dose inhibition, % at 30 µM; IC50 in µM for titrated hits | recombinant M1AAP, H-Leu-NHMec fluorogenic kinetic assay; higher % means a stronger effect | 220,000 tested, 0.42% active;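 active = primary inhibition above the hit cutoff, then over 50% inhibition at one or more dose response concentrations, cut at about 23% in these data, passing the limit was not always enough; inconclusive = conflicting primary data, or primary hits not chosen for dose response; inactive = low primary inhibition, or under 50% at every dose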;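 also: plate controls were DMSO full reaction for no effect and no enzyme background for full effect; strong numbers were not always called active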
P. falciparum M17LAP: P. falciparum M17LAP inhibitors, primary screen, biochemical, fluorogenic H-Leu-NHMec substrate, 1536-well (AID 1619) | recombinant M17LAP, H-Leu-NHMec fluorogenic kinetic assay; higher % means a stronger effect | inhibition, % at 30 µM, or IC50 in µM where a hit was titrated | 220,000 tested, 0.38% active;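 active = compound inhibiting the enzyme by more than half at any dose during confirmatory dose-response retesting; inconclusive = strong single-dose inhibitors picked by rank but not retested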;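 also: plate controls were full reaction with DMSO carrier for no effect and no enzyme background for full effect; strong numbers were not always called active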
Hep lipid drop cells 6.5 µM: second read-out of Hep lipid drop, no call of its own (marks repeat the call); cell count; measured here: cell count, cytotoxicity flag;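 cells counted across two imaged fields per well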
* = called active by the depositor; ? = inconclusive; / = not tested or not shown. These rows are one share of the data. The share of hits here may be higher or lower than overall.

cpd	Compound	CSM14.1 death rescue	LYP inhibition	Hep lipid drop	Hep lipid drop cells 6.5 µM	AID2073
1	COc1ccc(Nc2oc(COc3ccccc3OC)nc2C#N)cc1	-0.8%	-1%	24	669	5%
2	COC(CN(C(=O)CCl)C(C(=O)NC1CCCCC1)c1ccccc1C)OC (stereo not given)	0.8%	-4%	-4	607	-2%
3	COc1ccc(OC)c(Nc2nc(N)nc(CCl)n2)c1	/	-7%	9	737	4%
4	O=C(O)CCCN1C(=O)/C(=C\C(Cl)=C\c2ccccc2)SC1=S	/	4%	-63	848	2%
5	COc1ccc(Cc2[nH]n3c(=O)c(Cl)c(C)nc3c2-c2ccccc2)cc1	-1.1%	3%	-2	715	14%
6	O=C(O)c1c(NC(=O)c2cccc3ccccc23)sc2c1CCC2	-2.3%	3%	-1	694	24%
7	O=C(Nc1nc(-c2ccccc2)cs1)C1CCCN(S(=O)(=O)c2ccccc2)C1 (stereo not given)	-0.2%	0%	/	/	1%
8	CCC(=O)NC(c1cccs1)c1cc([N+](=O)[O-])c2cccnc2c1O (stereo not given)	0.4%	-1%	38	725	27%
9	O=C(NCc1ccco1)c1sc(=S)n2c1[nH]c(=O)c1ccccc12	-1.5%	-7%	/	/	-6%
10	O=C(N/N=C/c1ccccn1)c1cc(-c2ccc(Br)cc2)nc2ccccc12	/	5%	-52	622	6%

cpd	Siah-1 displacement	XIAP antagonists	P. falciparum M1AAP	P. falciparum M17LAP
1	3%	-3.3%	1%	-17%
2	3%	-4.5%	0%	-33%
3	0%	/	6%	-6%
4	5%	/	/	/
5	-7%	-2.4%	10%	1%
6	0%	-4.2%	17%	22%
7	-5%	-3.6%	1%	9%
8	11%	-1.8%	-5%	11%
9	-8%	0.0%	10%	15%
10	-6%	/	-9%	3%

Further entries.
cpd	Compound	CSM14.1 death rescue	LYP inhibition	Hep lipid drop	Hep lipid drop cells 6.5 µM	AID2073
11	O=C(CSc1nc2nc(-c3cccs3)cc(C(F)(F)F)c2c(=O)[nH]1)Nc1ccc(F)c(F)c1	3.3%	4%	4	631	22%
12	COc1ccc(-c2cn[nH]c2-c2ccc(O)cc2O)cc1	/	-3%	-2	770	13%
13	Cc1cccc(-c2nnc(NC(=O)c3ccc(Cl)cc3)o2)c1	-0.7%	-9%	1	758	6%
14	Cc1ccc(NC(=O)C2=C(c3ccccc3)S(=O)(=O)CCS2(=O)=O)cc1	-2.2%	-1%	4	653	3%
15	Cc1ccc(-n2[nH]c3c4c(ccc3c2=O)C(=O)c2ccccc2C4=O)cc1	-1.5%	0%	-5	592	-5%
16	Cn1c(SC2=CS(=O)(=O)c3ccccc32)nc2ccccc21	-0.5%	-7%	/	/	3%
17	CCCN(CC(=O)Nc1ccccc1C)C(=O)CCl	-1.6%	-3%	10	672	10%
18	CCN1/C(=C/C(C)=C/c2sc3ccccc3[n+]2CC)Sc2ccccc21	-1.3%	2%	-82	486	20%
19	COc1ccc2cc3c(N)nn(C(=O)c4cccc(F)c4)c3nc2c1	/	-13%	-1	641	10%
20	O=[N+]([O-])c1cc(S(=O)(=O)Nc2cccc(C(F)(F)F)c2)ccc1-n1nnc2ccccc21	4.9%	0%	9	799	-4%

cpd	Siah-1 displacement	XIAP antagonists	P. falciparum M1AAP	P. falciparum M17LAP
11	10%	-5.7%	13%	5%
12	1%	/	/	/
13	-7%	-4.7%	7%	34%
14	-1%	-12%	2%	7%
15	-1%	2.4%	7%	2%
16	0%	0.3%	4%	-16%
17	-5%	-11%	13%	-6%
18	112%	-2.6%	2%	67%
19	13%	/	-5%	1%
20	-5%	-17%	14%	13%

Following part
cpd	Compound	CSM14.1 death rescue	LYP inhibition	Hep lipid drop	Hep lipid drop cells 6.5 µM	AID2073
21	O=C(COc1ccc(Cl)cc1Cl)Nc1ccc(C(=O)Nc2ccccc2C(=O)O)cc1	/	-4%	0	857	21%
22	COc1ccc(-n2c(C)c(C(C)=O)c3cc(OC(C)=O)ccc32)cc1	/	0%	-7	812	2%
23	Cc1ccc(Cl)c(NC(=O)COC(=O)c2ccccc2C(=O)c2ccc(Cl)c([N+](=O)[O-])c2)c1Cl	-0.3%	2%	-2	708	1%
24	Cc1ccc(OCC(=O)c2cc(C)n(Cc3cccs3)c2C)c([N+](=O)[O-])n1	0.6%	0%	-28	607	34%
25	O=S1(=O)Nc2c(ccc3cccnc23)-c2ccccc21	2.3%	-4%	/	/	?
26	Nc1ccc2c(c1)C(=O)C(=O)c1ccccc1-2	-6.9%	5%	-8	799	17%
27	Cc1ccc(-n2ncc3c2CCCC3NC(=O)c2ocnc2C)cc1C (stereo not given)	/	1%	-10	815	9%
28	CCOc1cccc(-c2c(C(=O)N/N=C(\C)c3ccccn3)nnn2-c2nonc2N)c1	/	-5%	-68	381	-10%
29	CC(C)c1ccc(-c2csc(NC(=O)c3cccs3)c2C(=O)O)cc1	-1.9%	4%	9	672	24%
30	O=C(Nc1ccc(Cl)c(S(=O)(=O)N2CCOCC2)c1)c1ccc(OCC2CCCO2)cc1 (stereo not given)	-4.0%	10%	-9	689	2%

cpd	Siah-1 displacement	XIAP antagonists	P. falciparum M1AAP	P. falciparum M17LAP
21	4%	/	/	/
22	9%	/	/	/
23	-3%	-0.1%	-2%	-4%
24	0%	-1.7%	8%	-4%
25	-7%	-6.1%	-9%	30%
26	9%	10%	2%	-8%
27	5%	/	/	/
28	-8%	/	/	/
29	8%	-4.7%	8%	3%
30	1%	-4.1%	9%	2%

(listing goes on)
cpd	Compound	CSM14.1 death rescue	LYP inhibition	Hep lipid drop	Hep lipid drop cells 6.5 µM	AID2073
31	Cc1ccc(Cl)cc1N1CCN(C(=O)c2cc3c(=O)[nH]c4ccccc4c3n2C)CC1	2.1%	8%	-1	750	10%
32	CC(C)(C)C(=O)Nc1ccc(NC(=O)c2ccco2)nc1	/	-6%	-11	799	3%
33	Cc1cccc(NC2=C/C(=N/S(=O)(=O)c3cccs3)c3ccccc3C2=O)c1	-2.7%	-8%	8	681	-3%
34	Nc1nccc(-c2ccc(-n3cnc4ccccc43)cc2)n1	1.7%	4%	-15	697	9%
35	COC(=O)C1CCCCN1C(=O)c1cc(COc2cccc3cnccc23)on1 (stereo not given)	/	-13%	-24	670	13%
36	COc1ccc(C2=Nn3c([n+](C)c4ccccc43)SC2)cc1	-0.4%	-5%	-82	655	-7%
37	Cn1c(/C=C/c2ccc(Cl)cc2)c([N+](=O)[O-])c(=O)n(C)c1=O	/	-7%	-34	834	-3%
38	Cc1ccc(-c2csc3ncnc(Sc4nnc(CN5CCCCCC5=O)o4)c23)cc1	2.1%	2%	/	/	15%
39	Cc1ccc(-c2nn(CCC(=O)O)cc2/C=C\C(=O)c2ccc(Br)cc2)cc1	-0.2%	-2%	-5	685	26%
40	CC(C)(C)c1ccc(-c2noc(CCC(N)=O)n2)cc1	-2.0%	-2%	/	/	-4%

cpd	Siah-1 displacement	XIAP antagonists	P. falciparum M1AAP	P. falciparum M17LAP
31	-2%	-4.4%	4%	-9%
32	6%	/	/	/
33	-5%	-5.8%	4%	-12%
34	-1%	-9.6%	-1%	11%
35	-6%	/	/	/
36	1%	-8.3%	2%	34%
37	1%	/	/	/
38	0%	-6.0%	0%	-2%
39	1%	-0.9%	16%	34µM*
40	-3%	-3.0%	13%	-5%

The list goes on.
cpd	Compound	CSM14.1 death rescue	LYP inhibition	Hep lipid drop	Hep lipid drop cells 6.5 µM	AID2073
41	c1ccc2nc(-c3ccc4c(c3)OCO4)ccc2c1	-0.8%	2%	8	690	26%
42	CCOC(=O)C1=C(Cc2ccc(C)cc2)C(=O)c2ccccc2C1=O	-2.0%	-1%	7	752	36%
43	CCN1/C(=C/c2ccc3cc(C)ccc3[n+]2CC)Sc2ccccc21	-2.8%	-2%	-155	401	1%
44	COc1ccc(-c2cc(C(F)(F)F)nc(S(=O)(=O)CCCC(=O)Nc3cccc(O)c3)n2)cc1OC	-1.8%	-5%	-25	696	-1%
45	c1ccc(CN2CCN(c3ncnc4c3[nH]c3ccccc34)CC2)cc1	-0.2%	-12%	/	/	4%
46	Cc1ccc(C(=O)N2CCN(c3ccc(NC(=O)c4ccc5c(c4)OCCO5)cc3)CC2)cc1	/	-4%	7	691	13%
47	Cc1csc(SCC(=O)Nc2cccc3nsnc23)n1	0.4%	-7%	1	628	10%
48	CCc1ccc(NC(=O)Nc2ccsc2C(=O)OC)cc1	/	-3%	-1	901	24%
49	CCOC(=O)/C=C/S(=O)(=O)c1ccc(NC(C)=O)cc1	-7.5%	-9%	/	/	0%
50	CCC(=O)N1CCN(c2ccc(NC(=O)c3cc4ccccc4o3)cc2Cl)CC1	-1.8%	3%	9	622	13%
51	Cn1c(=O)[nH]c(=O)c2c1nc([N+](=O)[O-])n2Cc1ccccc1	/	-1%	11	680	-78%

cpd	Siah-1 displacement	XIAP antagonists	P. falciparum M1AAP	P. falciparum M17LAP
41	3%	-4.5%	5%	-2%
42	-1%	5.0%	7%	-31%
43	-2%	-5.1%	21%	52%
44	5%	-5.6%	9%	0%
45	-5%	-4.6%	5%	3%
46	6%	/	/	/
47	-2%	-3.1%	10%	-2%
48	-1%	/	/	/
49	-2%	-2.6%	1%	-8%
50	3%	-2.2%	12%	4%
51	3%	/	9%	6%
